Screening results (PubChem BioAssay)
CBX7 AlphaScr – blocks human CBX7 binding to H3K27me3 peptide | O95931 | AlphaScreen His6-CBX7 / biotin-H3K27me3 peptide binding; active compounds read low | normalised signal (fraction of DMSO) (test concentration not listed) | hit rate 1.1% among 66,000; in the data active = normalised signal below about 0.5;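 note: 100 nL library stock added to about 20 µL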
Target sequence (O95931 whole entry, looked up): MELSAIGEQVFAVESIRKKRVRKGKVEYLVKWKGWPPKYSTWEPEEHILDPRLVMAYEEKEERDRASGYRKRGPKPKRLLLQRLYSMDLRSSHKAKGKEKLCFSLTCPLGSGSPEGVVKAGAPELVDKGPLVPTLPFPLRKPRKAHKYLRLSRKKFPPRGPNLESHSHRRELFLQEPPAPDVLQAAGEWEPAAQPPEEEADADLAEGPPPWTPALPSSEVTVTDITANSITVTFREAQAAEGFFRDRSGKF
CBX7 AlphaScr z-score – second read-out of CBX7 AlphaScr, no call of its own (marks repeat the call); z-score; measured here: z-score of CBX7 signal; some inactives read as strong as hits; reference of the scale not given here;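 same signal on another scale; lower means less binding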
Starred values were filed as active, the others as inactive; & = joins results of further samples.

SMILES	CBX7 AlphaScr	CBX7 AlphaScr z-score
O=c1[nH]c(Nc2nc3ccccc3o2)nc2c1CCCC2	1.12	1.57
Cc1ccc2c(c1)C(O)(c1c(C)[nH]c3ccccc13)C(=O)N2 (configuration not stated)	0.851	-0.198
CCOc1ccc(N2C(=O)c3cccnc3C2Nc2ccc(Cl)cc2)cc1 (configuration not stated)	0.811	-5.12
COc1ccc(Br)cc1CN(CCc1ccc2c(c1)OCO2)Cc1cccnc1	0.515	-3.8
CCOc1ccc(Cc2nc3cc(C)c(C)cc3[nH]c2=O)cc1	1.2	2.08
O=C(NCCN1CCOCC1)c1ccc2c(c1)N(Cc1ccccc1F)C(=O)CS2	1.03	1.37
Cc1cccc(C)c1NC(=O)C1CC(=O)N(c2ccc(OCc3ccccc3)cc2)C1 (configuration not stated)	0.97	-0.702
COC(=O)COc1ccc(-c2nnc(Nc3cccc(C)c3)c3ccccc23)cc1	0.726	-3.09
O=C(NCC1c2ccccc2CCN1C(=O)CN1CCOCC1)C1CCCCC1 (configuration not stated)	1.04	0.943
COc1ccc(-c2cn(-c3ccc(F)cc3)c(S(C)(=O)=O)n2)cc1	0.879	-0.211
CCN(CC)C(=O)c1cc(-c2ccc3c(c2)OCO3)on1	1.19	1.47
CCN(CC)CCOc1nnc(-c2ccc(OC)cc2)c2ccccc12	0.781	-0.862
Cc1ccc(C(C)C)cc1Oc1ccc(Cl)cc1NC(=O)c1cc(Cl)ccc1O	1.02	0.751
COc1cccc(-c2nc(SCC(=O)NCC3CCCO3)c(-c3ccc(F)cc3)[nH]2)c1 (configuration not stated)	0.985	-0.251
O=C(O)COc1ccc(-c2cc(C(=O)O)c3cc(Br)ccc3n2)cc1	1.01	0.346
COc1ccc(NC(=O)C2(N(C)C(=O)Cc3nc(N)n[nH]3)CCCCC2)cc1	0.814	-2.69
O=C(O)c1ccc(S(=O)(=O)c2ccc3c(c2)C(=O)N(c2cccc(C(=O)O)c2)C3=O)cc1	0.912	-3.14
CC1(C)CC(=O)C2=C(C1)N(c1ccccc1F)C(=O)CC2c1cccs1 (configuration not stated)	1.44	4.24
C=CCOc1ccc(C(=O)N(Cc2cccc(Cl)c2)C2CCS(=O)(=O)C2)cc1 (configuration not stated)	0.856	-0.144
CCc1ccc(-c2nc(CSCC(=O)NC3CCCCCC3)c(C)o2)cc1	0.395*	-11.4*
CCC1Oc2ccc(C)cc2N(CC(=O)NCCOC)C1=O (configuration not stated)	1.04	0.681
CC1CCN(C(=O)c2cc3sc(Cl)cc3n2C)CC1	0.947	-2.12
COc1cccc(C(=O)Nc2c(-c3cccs3)nc3ccccn23)c1OC	0.86	-4.02
COc1ccc(C2(CNCC(N)=O)CCCC2)cc1OC	1.02	0.188
COc1cc2c(cc1OC)C(c1ccncc1)CC(=O)N2 (configuration not stated)	1.01	0.138
CCOc1ccc(OCCSc2nc3ccccc3n2CCO)cc1	1.02	0.206
Clc1ccc(-c2cn3c4ccccc4n(CCN4CCCCC4)c3n2)cc1	2.19	12.6
COc1ccc(C2c3c(-c4ccccc4)n[nH]c3C(=O)N2c2ccc(Cl)cc2)cc1 (configuration not stated)	0.874	-1.29
CCn1c(SCC(=O)Nc2cc(C)on2)nnc1-c1c[nH]c2ccccc12	1.09	0.555
CCc1nc2c(cnn2-c2ccc(F)cc2)c(=O)n1-c1ccc(F)c(Cl)c1	0.953	-0.603
Cc1cccc(CSc2nc3ccncc3n2Cc2cccc(C)c2)c1	0.986	-0.201
Cc1ccc(NC(=O)c2oc3ccc(S(=O)(=O)N4CC(C)CC(C)C4)cc3c2C)cc1C (configuration not stated)	0.962	-1.47
COc1ccc(N2CCN(C(c3cccs3)C(C)NC(=O)c3ccc(F)cc3)CC2)cc1 (configuration not stated)	0.802	-4.82
CC(=O)Nc1ccc(S(=O)(=O)NCCc2cc3cc(C)c(C)cc3[nH]c2=O)cc1	0.961	-0.986
CCOc1ccc(C(=O)Nc2ccc3oc(-c4cccc(C)c4)nc3c2)cc1	0.774	-0.914
O=C(NCc1cccs1)c1cc2n(n1)C(C(F)(F)F)CC(c1ccc(F)cc1)N2 (configuration not stated)	1.02	0.453

Part of the list above, set out differently:
| mol | CBX7 AlphaScr | CBX7 AlphaScr z-score |
| --- | --- | --- |
| Cc1ccc(NC(=O)c2oc3ccc(S(=O)(=O)N4CC(C)CC(C)C4)cc3c2C)cc1C (configuration not stated) | 0.962 | -1.47 |
| COc1ccc(N2CCN(C(c3cccs3)C(C)NC(=O)c3ccc(F)cc3)CC2)cc1 (configuration not stated) | 0.802 | -4.82 |

Additional structures.
SMILES	CBX7 AlphaScr	CBX7 AlphaScr z-score
CCC(=O)N1CCc2cc(S(=O)(=O)N(CC)c3cccc(C(F)(F)F)c3)ccc21	1.05	0.925
COc1ccc(NC(=O)CSc2nnc(Cc3cc(=O)[nH]c(=O)[nH]3)n2-c2ccc(Cl)cc2)cc1	0.821	-2.74
O=C(CCCn1c(=O)[nH]c2ccccc2c1=O)NCc1cccnc1	1.16	0.443
Cc1ccccc1Cn1nnc(-c2ccc(F)cc2)n1	1.51	3.32
COc1ccc(CNC2CC(=O)N(c3ccc(Br)cc3)C2=O)cc1 (configuration not stated)	1.05	1.42
O=C(O)CCC(=O)N1CCc2cc(S(=O)(=O)N3CCN(c4ccc(F)cc4)CC3)ccc21	0.967	-0.783
CCOc1ccc(-c2cc3cc(OC)c(OC)cc3c(Cc3ccccc3)n2)cc1	1.02	0.281
CCN(CC)CC(C)CNC(=O)c1cc(=O)[nH]c2ccc(S(=O)(=O)N3CCCC(C)C3)cc12 (configuration not stated)	1.11	1.56
COc1cccc(NC(=O)CC2Sc3ccc(C(F)(F)F)cc3NC2=O)c1 (configuration not stated)	0.946	-1.74
COc1ccc(CCNC(=O)CN2CCOc3ccccc32)cc1OC	1.09	1.12
Cc1ccc(C)c(NC(=O)c2c(-c3c(Cl)cccc3Cl)noc2C)c1	1.1	2.67
COc1ccc(-c2cc(C(=O)Nc3c(F)cc(F)cc3Br)no2)cc1OC	1.1	0.779
Cc1nn(-c2ccccc2)c(C)c1-c1ccccc1O	1.01	0.00946
O=C(CN1N=C(c2ccccc2)CCC1=O)NCCCN1CCCCC1	1.07	1.02
CCC(C)N(CCNC(=O)c1csc2c1CCCCC2)C1CCCCC1 (configuration not stated)	0.985	-0.483
CC(C)CCOc1ccc(C2(C)NC(=O)N(C)C2=O)cc1 (configuration not stated)	1.14	3.69
CCCCOc1ccccc1NC(=O)Cn1c(-c2cncs2)nc2ccccc21	0.955	-0.95
Cc1ccccc1-c1noc(-c2ccc(F)cc2)n1	1.17	5.55
Cc1ccc(NC(=O)c2cnn(-c3ccc(C)c(C)c3)c2C2CCN(C(=O)OC(C)(C)C)CC2)cc1	0.981	-0.77
COc1ccccc1CC(=O)Nc1ccc(-c2noc(-c3cccs3)n2)cc1	1.1	1.78
COc1ccc(OC)c(C2=NOC(C(=O)NC(C)c3ccccc3)C2)c1 (configuration not stated)	1.07	2.52
O=C(NC1CCCCC1)[C@H](CSCc1ccccc1)N1Cc2ccccc2C1=O	0.951	-1.12
Cc1onc(-c2ccccc2Cl)c1C(=O)Nc1ccc(-n2nncc2C(C)(C)C)cc1	0.935	-3.34
Fc1ccc(-c2nnc3ccc(NCc4ccc(Cl)cc4)nn23)cc1	0.988	-0.276
CCN(C(=O)Cc1c(C(=O)O)[nH]c2ccc(Cl)cc12)c1cccc(Cl)c1	1.06	1.63
COc1ccccc1C(=O)NCCc1nc2ccccc2n1CC(C)C	0.991	-0.278
COC(CNC(=O)c1cc(Nc2ccccc2C)nc2ccccc12)OC	1.03	0.771
Cc1c(NC(=O)c2cccc(Br)c2)cccc1-c1nc2ncccc2o1	0.976	-0.258
Cc1ccc2cc(CCNC(=O)c3ccccc3F)c(=O)[nH]c2c1C	1.06	0.369
CC(C)c1ccc(Nc2c(-c3cccs3)nc3cnccn23)cc1	1.11	2.45
O=C(NCCCN1CCCCCC1)c1csc2c1CCCCC2	0.965	-0.878
COc1ccc(Cl)cc1NC1c2ccccc2C(=O)N1c1ccc(C)cn1 (configuration not stated)	1.19	2.53
Cc1ccc(-c2cc(C(=O)NCCCN3CCC(N4CCCCC4)CC3)c3ccccc3n2)cc1C	1.05	1.1
CCCCN(CCCC)S(=O)(=O)c1ccc(C(=O)Nc2nnc(-c3cccs3)o2)cc1	0.805	-3.28
Cc1cccc(C)c1Nc1nc2nonc2nc1Nc1ccccc1	0.946	-0.87
O=C(Nc1ccc(F)cc1)[C@H](CSCc1ccccc1)N1Cc2ccccc2C1=O	0.908	-2.09

4 of these compounds in a different format:
COC(=O)COc1ccc(-c2nnc(Nc3cccc(C)c3)c3ccccc23)cc1
  CBX7 AlphaScr: 0.726	CBX7 AlphaScr z-score: -3.09
COc1cccc(C(=O)Nc2c(-c3cccs3)nc3ccccn23)c1OC
  CBX7 AlphaScr: 0.86	CBX7 AlphaScr z-score: -4.02
COc1ccc(-c2cc(C(=O)Nc3c(F)cc(F)cc3Br)no2)cc1OC
  CBX7 AlphaScr: 1.1	CBX7 AlphaScr z-score: 0.779
Cc1ccccc1-c1noc(-c2ccc(F)cc2)n1
  CBX7 AlphaScr: 1.17	CBX7 AlphaScr z-score: 5.55

Additional results:
SMILES	CBX7 AlphaScr	CBX7 AlphaScr z-score
c1ccc2cc(OCc3nc(-c4ccncc4)no3)ccc2c1	1.12	2.93
CCCCN(C)C(=O)c1c[nH]n2c(=O)c(Cc3ccc(F)cc3)c(C)nc12	0.965	-0.888
CCOc1ccc2nc(N3CCCC(C(=O)NC4CCCCCC4)C3)sc2c1 (configuration not stated)	1.18	1.67
CC(=O)Nc1ccc(NC(=O)C2CCCN(S(=O)(=O)c3cnc[nH]3)C2)cc1 (configuration not stated)	0.94	-1.36
O=C(Nc1cccc(-c2nc3ccccc3o2)c1)C1CCCCC1	1	0.124
O=C1CN(C(=O)C2CC2)C(c2ccccc2)c2cc(F)ccc2N1 (configuration not stated)	1.12	0.158
O=C(CSCc1cnn(-c2ccccc2)c1-n1cccc1)NCCN1CCOCC1	1.04	1.77
CCCCOc1ccc(C(=O)N(Cc2ccc(OC)c(OC)c2)C2CCS(=O)(=O)C2)cc1 (configuration not stated)	0.826	-0.174
O=C(Nc1ccc(-c2nc3ccccc3s2)cc1)c1cccc(Br)c1	1.15	2.91
Cc1ccc(-c2noc(CCC(=O)N(C)c3ccc(Cl)cc3)n2)cc1	1.28	2.7
Cc1ccc(-c2csc(NC(=O)c3cccc(Oc4ccccc4)c3)n2)cc1	1.06	2.3
Cc1ccc(CNC(=O)C2CCCN(S(=O)(=O)c3cccnc3)C2)cc1 (configuration not stated)	1.04	0.042
N#Cc1nc(COc2ccccc2Cl)oc1N1CCOCC1	0.83	-1.06
COc1cc(C)nc(N(Cc2ccccc2)S(=O)(=O)c2ccc(C)cc2)n1	1.03	0.626
O=C(Nc1cccc(-c2nc3cc(Cl)ccc3o2)c1)c1ccc(-c2ccc(Cl)cc2)o1	1.03	0.868
Cc1onc(-c2ccccc2Cl)c1C(=O)NCc1ccc2c(c1)OCO2	0.94&0.821	-0.391&-0.708
O=C(Nc1cccc(O)c1)c1cc2nc(-c3cccs3)cc(C(F)(F)F)n2n1	1.22	2.3
COc1ccc(NC(=O)c2cc(-c3cccc(C)c3)nc3ccccc23)c(OC)c1	0.958	-0.148
Cc1cc(SCC(=O)Nc2nsc(-c3ccccc3)n2)nc2ccccc12	0.747	-9.02
Cc1cccc(N2CCN(C(=O)c3ccc4c(c3)N(Cc3ccccc3)CCS4)CC2C)c1 (configuration not stated)	0.795	-0.272
Cc1nn(C)c(C)c1S(=O)(=O)N(CC(=O)N1CCN(C)CC1)c1ccc(C(C)C)cc1	0.994	-0.098
CCOc1ccc2c(c1)c(=O)c(S(=O)(=O)c1ccc(C)cc1)cn2CC(=O)Nc1cccc(C)c1	0.894	-1.49
Cc1nnc(Nc2ccc3c(c2)OCO3)c2ccccc12	0.681	-3.6
CCCCSc1nnc(NC(=O)c2c(-c3ccccc3Cl)noc2C)s1	1.04	1.21
CCCCOc1cccc(-c2nc3c(C(=O)OC)c[nH]n3c2NC2CCCC2)c1	0.197*	-0.903*
CCCCOC(=O)c1ccc(N2C(=O)CC(N3CCN(c4ccccn4)CC3)C2=O)cc1 (configuration not stated)	1.02	0.625
COc1ccc(OC)c(NC(=O)c2c(NCc3ccncc3)sc3c2CCC3)c1	0.753	-2.66
Cc1sc2ncn(CC(=O)NCCCC(=O)N3CCOCC3)c(=O)c2c1C	1	0.0494
CCc1ccccc1NS(=O)(=O)c1ccc2c(c1)CCN2C(C)=O	0.983	-0.545
Cc1nc(N2CCN(C)CC2)c2c3c(sc2n1)CCCC3	0.907	-2.53
COc1ccccc1CNC(=O)CCC(=O)Nc1ccc2nc(N3CCCCC3)cc(C)c2c1	0.979	-0.54
CCOC(=O)c1c(Cn2ccnc2C)n(C)c2cc(Br)c(O)cc12	0.877	-0.483
COc1ccc(CCNC(=O)c2ccc3c(c2)N=C(C)c2ccccc2S3)cc1OC	1	0.0292
O=C(NCC1(c2ccccc2)CCOCC1)c1cccc(Br)c1	0.933	-0.422
Cc1cccc(CSc2nc3ccncc3n2CC(=O)Nc2cccc(Cl)c2C)c1	1.13	1.81
CCN(C(=O)CCc1nc(-c2ccc(OC)cc2)no1)c1cccc(Cl)c1	0.98	-0.0198
COc1cc(C)nc(Oc2ccc(OCc3ccccc3)nn2)n1	0.991	-0.0956
CCOc1ccc(C(=O)N(Cc2ccc(OC)cc2)C2CCS(=O)(=O)C2)cc1 (configuration not stated)	0.944	-0.056
O=C(CSc1nc(-c2ccccc2)[nH]c1-c1ccccc1)NC1CCCC1	1.03	0.491
COc1ccc(-c2noc(-c3cccc(Br)c3)n2)cc1	1.1	2.68

In a second layout: 4 of the compounds above
Below each SMILES – CBX7 AlphaScr | CBX7 AlphaScr z-score
> O=C1CN(C(=O)C2CC2)C(c2ccccc2)c2cc(F)ccc2N1 (configuration not stated)
 : 1.12 | 0.158
> O=C(CSCc1cnn(-c2ccccc2)c1-n1cccc1)NCCN1CCOCC1
 : 1.04 | 1.77
> CCCCOc1ccc(C(=O)N(Cc2ccc(OC)c(OC)c2)C2CCS(=O)(=O)C2)cc1 (configuration not stated)
 : 0.826 | -0.174
> O=C(Nc1ccc(-c2nc3ccccc3s2)cc1)c1cccc(Br)c1
 : 1.15 | 2.91

A portion of the library. The share of hits here may be higher or lower than overall.
